Ran FRET = inhibitors of Ran–importin-beta complex formation, primary screen, biochemical, CFP-Ran/YFP-importin-beta FRET, RCC1, cell-free (AID 434961); inhibition, %; 7,700 tested, 0.2% active; CFP-Ran/YFP-importin-beta FRET, cell-free; active compounds read high;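 active = more than half of the replicate wells above 15% inhibition; inconclusive = exactly half above it; inactive = fewer than half above it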;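 also: 0% = DMSO wells and 100% inhibition = RanGDP control wells on each plate; stock of unstated strength diluted about 400-fold; mean of two wells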
Starred values were filed as active, the others as inactive; u = inconclusive.

SMILES | Ran FRET
COc1ccc(CN(C)C[C@H]2Oc3ccc(NC(=O)Nc4ccc(OC)cc4)cc3CC(=O)N([C@H](C)CO)C[C@H]2C)cc1 | u
Cc1noc(C)c1NC(=O)N(C)C[C@@H]1Oc2ccc(NC(=O)Nc3ccc4c(c3)OCO4)cc2C(=O)N([C@@H](C)CO)C[C@@H]1C | -4.2
Cc1noc(C)c1NC(=O)Nc1ccc2c(c1)C(=O)N([C@H](C)CO)C[C@@H](C)[C@H](CN(C)C)OCCCC[C@H](C)O2 | 0.5
C[C@@H]1CN([C@H](C)CO)C(=O)c2cc(NC(=O)C3CC3)ccc2O[C@@H]1CN(C)C(=O)Nc1ccccc1 | 6.3
CC(C)NC(=O)N(C)C[C@H]1OCCCC[C@H](C)Oc2ccc(NC(=O)Nc3ccc4c(c3)OCO4)cc2C(=O)N([C@@H](C)CO)C[C@H]1C | -0.2
C[C@H]1CCCCO[C@@H](CN(C)C)[C@@H](C)CN([C@@H](C)CO)C(=O)c2cc(NC(=O)Nc3cccc4ccccc34)ccc2O1 | -1.3
C[C@@H]1CN([C@@H](C)CO)C(=O)c2cc(NS(=O)(=O)c3cccs3)ccc2O[C@@H](C)CCCCO[C@H]1CN(C)C(=O)CCCN(C)C | 0.6
Cc1noc(C)c1S(=O)(=O)N(C)C[C@H]1Oc2ccc(NC(=O)Cc3cn(C)c4ccccc34)cc2CC(=O)N([C@@H](C)CO)C[C@@H]1C | -1.3
C[C@@H]1CCCCO[C@@H](CN(C)C(=O)Nc2ccccc2)[C@H](C)CN([C@@H](C)CO)C(=O)c2cc(NC(=O)C3CCCCC3)ccc2O1 | 7.2
C[C@H](CO)N1C[C@H](C)[C@H](CN(C)Cc2ccc(C(F)(F)F)cc2)Oc2c(NS(C)(=O)=O)cccc2C1=O | 0.4
C[C@H](CO)N1C[C@H](C)[C@H](CN(C)C(=O)Nc2ccc3c(c2)OCO3)Oc2ccc(NC(=O)Nc3ccc4c(c3)OCO4)cc2CC1=O | -1.3
Cc1cc(C(=O)Nc2cccc3c2O[C@H](CN(C)C(=O)NC2CCCCC2)[C@H](C)CN([C@H](C)CO)C3=O)n(C)n1 | 1.8
C[C@@H]1CN([C@@H](C)CO)C(=O)c2cc(NC(=O)Cc3ccccc3)ccc2O[C@@H](C)CCCCO[C@@H]1CN(C)C(=O)Nc1ccccc1 | 5.7
CNC[C@H]1Oc2ccc(N(C)C)cc2C(=O)N([C@@H](C)CO)C[C@@H]1C | 2.0
COc1ccc(CN(C)C[C@H]2Oc3ccc(NC(=O)Cn4cnnn4)cc3CC(=O)N([C@H](C)CO)C[C@@H]2C)cc1 | -4.1
C[C@@H]1CN([C@H](C)CO)C(=O)c2cc(NC(=O)Cc3cn(C)c4ccccc34)ccc2O[C@@H]1CN(C)CC1CC1 | -1.9
Cc1noc(C)c1S(=O)(=O)Nc1ccc2c(c1)C(=O)N([C@H](C)CO)C[C@H](C)[C@@H](CN(C)C(=O)NC1CCCCC1)O2 | 3.5
Cc1noc(C)c1S(=O)(=O)N(C)C[C@@H]1Oc2ccc(NC(=O)CCCN(C)C)cc2C(=O)N([C@@H](C)CO)C[C@@H]1C | -1.9
Cc1cc(C(=O)Nc2cccc3c2O[C@@H](CN(C)CC2CC2)[C@H](C)CN([C@@H](C)CO)C3=O)n(C)n1 | -0.3
C[C@@H]1CN([C@H](C)CO)C(=O)c2cc(NS(=O)(=O)c3cn(C)cn3)ccc2O[C@@H]1CN(C)C(=O)NC1CCCCC1 | -5.6
CNC[C@H]1Oc2ccc(NC(=O)Nc3ccc4c(c3)OCO4)cc2C(=O)N([C@@H](C)CO)C[C@@H]1C | 1.3
C[C@H](CO)N1C[C@H](C)[C@@H](CN(C)C(=O)c2ccccc2)OCc2cnnn2CCCC1=O | -0.3
C[C@@H]1CN([C@H](C)CO)C(=O)CCCn2cc(nn2)CO[C@@H]1CN(C)Cc1cccc2c1OCCCO2 | 4.7
C[C@@H]1CCCCO[C@H](CN(C)C(=O)Nc2ccccc2)[C@H](C)CN([C@@H](C)CO)C(=O)c2cc(NC(=O)Cc3ccccc3)ccc2O1 | 1.0
C[C@@H]1CN([C@@H](C)CO)C(=O)c2cc(NC(=O)NC3CCCCC3)ccc2O[C@H]1CN(C)Cc1ccc2c(c1)OCO2 | 1.4
C[C@@H]1CCCCO[C@@H](CN(C)C(=O)c2ccncc2)[C@H](C)CN([C@@H](C)CO)C(=O)c2cc(NC(=O)CCC(F)(F)F)ccc2O1 | 2.1
Cc1noc(C)c1S(=O)(=O)N(C)C[C@H]1Oc2ccc(NS(=O)(=O)c3cccs3)cc2CC(=O)N([C@H](C)CO)C[C@H]1C | -1.4
C[C@@H]1CN([C@H](C)CO)C(=O)c2cccc(NC(=O)c3ccc(-c4nccs4)cc3)c2O[C@@H]1CN(C)CC1CC1 | 30*
CNC[C@H]1OCCCC[C@H](C)Oc2ccc(N)cc2C(=O)N([C@@H](C)CO)C[C@@H]1C | 1.5
C[C@H]1CN([C@@H](C)CO)C(=O)c2cccc(NS(=O)(=O)c3cccs3)c2O[C@@H]1CN(C)C(=O)Nc1cccc2ccccc12 | -3.5
Cc1noc(C)c1NC(=O)Nc1cccc2c1O[C@@H](CN(C)C)[C@H](C)CN([C@@H](C)CO)C2=O | 4.6
C[C@H](CO)N1C[C@H](C)[C@H](CN(C)C)OCCCC[C@H](C)Oc2ccc(NC(=O)Nc3ccc4c(c3)OCO4)cc2C1=O | 8.2
C[C@@H]1CCCCO[C@@H](CN(C)C(=O)c2ccccc2)[C@@H](C)CN([C@H](C)CO)C(=O)c2cc(NS(=O)(=O)c3ccccc3)ccc2O1 | -0.9
Cc1noc(C)c1S(=O)(=O)N(C)C[C@H]1Oc2ccc(NC(=O)Nc3cccc4ccccc34)cc2CC(=O)N([C@H](C)CO)C[C@H]1C | u
COc1ccc(S(=O)(=O)N(C)C[C@@H]2Oc3ccc(NC(=O)NC(C)C)cc3C(=O)N([C@@H](C)CO)C[C@H]2C)cc1 | 3.1
COc1ccc(S(=O)(=O)N(C)C[C@H]2Oc3ccc(NC(=O)Nc4cccc5ccccc45)cc3CC(=O)N([C@@H](C)CO)C[C@H]2C)cc1 | -4.4
C[C@@H]1CN([C@@H](C)CO)C(=O)c2cccc(NS(C)(=O)=O)c2O[C@H]1CN(C)C(=O)Nc1ccccc1 | -2.2
C[C@@H]1CN([C@H](C)CO)C(=O)CCCn2nncc2CO[C@H]1CN(C)Cc1ccc(C(F)(F)F)cc1 | -0.6
C[C@H]1CCCCO[C@H](CN(C)C)[C@@H](C)CN([C@@H](C)CO)C(=O)c2cc(NS(C)(=O)=O)ccc2O1 | 3.6
C[C@@H]1CCCCO[C@H](CN(C)Cc2ccncc2)[C@H](C)CN([C@H](C)CO)C(=O)c2cc(NS(=O)(=O)c3ccccc3)ccc2O1 | -5.4
CC(C)NC(=O)N(C)C[C@H]1OCCCC[C@@H](C)Oc2ccc(NS(=O)(=O)c3ccccc3)cc2C(=O)N([C@@H](C)CO)C[C@H]1C | -0.1
C[C@H]1CN([C@@H](C)CO)C(=O)Cc2cc(NC(=O)C3CC3)ccc2O[C@@H]1CN(C)S(=O)(=O)c1cccs1 | -1.1
C[C@H](CO)N1C[C@H](C)[C@H](CN(C)CC2CC2)Oc2c(NC(=O)c3nc4ccccc4s3)cccc2C1=O | -0.6
COc1ccc(NC(=O)Nc2cccc3c2O[C@H](CN(C)S(=O)(=O)c2ccc(OC)cc2)[C@H](C)CN([C@@H](C)CO)C3=O)cc1 | -2.5
CC(C)NC(=O)Nc1ccc2c(c1)C(=O)N([C@@H](C)CO)C[C@@H](C)[C@H](CN(C)C(=O)Nc1ccccc1)OCCCC[C@@H](C)O2 | 4.2
Cc1noc(C)c1NC(=O)N(C)C[C@@H]1OCc2cn(nn2)CCCC(=O)N([C@@H](C)CO)C[C@H]1C | -3.3
Cc1noc(C)c1NC(=O)N(C)C[C@H]1OCCCC[C@H](C)Oc2ccc(NS(=O)(=O)c3cn(C)cn3)cc2C(=O)N([C@@H](C)CO)C[C@@H]1C | 1.0
CNC[C@H]1Oc2ccc(NC(=O)Nc3ccc(C(F)(F)F)cc3)cc2CC(=O)N([C@@H](C)CO)C[C@H]1C | 8.4
C[C@@H]1CN([C@H](C)CO)C(=O)Cc2cc(NC(=O)Cc3ccccc3)ccc2O[C@H]1CN(C)Cc1ccncc1 | 0.8
COc1ccc(S(=O)(=O)N(C)C[C@@H]2Oc3ccc(NC(=O)Nc4ccc5c(c4)OCO5)cc3CC(=O)N([C@@H](C)CO)C[C@@H]2C)cc1 | -1.3
Going on with the list.
SMILES | Ran FRET
CC(C)NC(=O)Nc1cccc2c1O[C@@H](CN(C)Cc1ccc(C(F)(F)F)cc1)[C@H](C)CN([C@H](C)CO)C2=O | 1.2
COc1ccc(NC(=O)Nc2cccc3c2O[C@H](CN(C)C)[C@@H](C)CN([C@H](C)CO)C3=O)cc1 | -2.3
C[C@@H]1CN([C@@H](C)CO)C(=O)c2cc(NC(=O)Nc3ccc(C(F)(F)F)cc3)ccc2O[C@@H](C)CCCCO[C@H]1CN(C)C | -2.5
C[C@@H]1CCCCO[C@H](CN(C)S(=O)(=O)c2ccccc2)[C@@H](C)CN([C@@H](C)CO)C(=O)c2cc(NC(=O)CCC(F)(F)F)ccc2O1 | 1.1
C[C@H](CO)N1C[C@H](C)[C@H](CN(C)Cc2ccc(C(=O)O)cc2)Oc2c(NS(=O)(=O)c3cccs3)cccc2C1=O | 1.5
C[C@H](CO)N1C[C@H](C)[C@@H](CN(C)S(=O)(=O)c2cccs2)Oc2ccc(NC(=O)c3ccncc3)cc2C1=O | -0.2
C[C@@H]1CN([C@@H](C)CO)C(=O)CCCn2nncc2CO[C@@H]1CN(C)Cc1ccncc1 | -5.1
Cc1noc(C)c1S(=O)(=O)N(C)C[C@@H]1Oc2ccc(NS(=O)(=O)c3cn(C)cn3)cc2CC(=O)N([C@H](C)CO)C[C@H]1C | -0.8
C[C@@H]1CN([C@@H](C)CO)C(=O)c2cc(NC(=O)CCCN(C)C)ccc2O[C@H]1CN(C)S(=O)(=O)c1cn(C)cn1 | 0.2
Cc1noc(C)c1NC(=O)N(C)C[C@@H]1Oc2ncc(C#Cc3ccc(C(F)(F)F)cc3)cc2C(=O)N([C@H](C)CO)C[C@@H]1C | -0.1
CC(C)NC(=O)N(C)C[C@H]1OCCCC[C@@H](C)Oc2ccc(NS(C)(=O)=O)cc2C(=O)N([C@@H](C)CO)C[C@@H]1C | 1.1
C[C@H](CO)N1C[C@H](C)[C@H](CN(C)Cc2ccc(C(F)(F)F)cc2)Oc2c(NC(=O)c3ccncc3)cccc2C1=O | 2.0
CNC[C@H]1Oc2c(NC(=O)Nc3ccccc3)cccc2C(=O)N([C@H](C)CO)C[C@@H]1C | 0.7
C[C@@H]1CN([C@@H](C)CO)C(=O)Cc2cc(NC(=O)Cc3cn(C)c4ccccc34)ccc2O[C@H]1CN(C)Cc1ccc(C(=O)O)cc1 | 7.6
C[C@H](CO)N1C[C@H](C)[C@H](CN(C)Cc2ccc(Oc3ccccc3)cc2)Oc2c(NS(C)(=O)=O)cccc2C1=O | 0.7
C[C@H](CO)N1C[C@H](C)[C@H](CN(C)Cc2ccccc2)OCCCC[C@H](C)Oc2ccc(NC(=O)CCCN(C)C)cc2C1=O | -6.0
C[C@H](CO)N1C[C@H](C)[C@H](CN(C)Cc2ccc3cccnc3c2)OCc2cn(nn2)CCCC1=O | -1.1
Cc1noc(C)c1NC(=O)N(C)C[C@@H]1OCCCC[C@H](C)Oc2ccc(NC(=O)c3ccncc3)cc2C(=O)N([C@@H](C)CO)C[C@H]1C | -0.9
C[C@@H]1CCCCO[C@@H](CN(C)C)[C@H](C)CN([C@@H](C)CO)C(=O)c2cc(NS(=O)(=O)c3cn(C)cn3)ccc2O1 | -1.9
C[C@H](CO)N1C[C@H](C)[C@H](CN(C)Cc2ccc(C(=O)O)cc2)Oc2ccc(NC(=O)Nc3ccc(F)cc3)cc2CC1=O | 3.2
C[C@@H]1CN([C@H](C)CO)C(=O)Cc2cc(NC(=O)Cn3cnnn3)ccc2O[C@@H]1CN(C)C(=O)Nc1ccccc1 | u
C[C@H]1CN([C@@H](C)CO)C(=O)c2cccc(NC(=O)C3CCOCC3)c2O[C@H]1CN(C)C(=O)Nc1ccc(F)cc1 | -1.8
C[C@@H]1CN([C@@H](C)CO)C(=O)c2cccc(NC(=O)NC3CCCCC3)c2O[C@H]1CN(C)Cc1ccc(C(=O)O)cc1 | -6.7
COc1ccc(CN(C)C[C@@H]2Oc3ccc(NC(=O)Cn4cnnn4)cc3C(=O)N([C@@H](C)CO)C[C@H]2C)cc1 | 1.2

Screening data as filed in PubChem.

Not all compounds are listed; the hit share may differ from the screen's.
